# NPYLR7 ag: mosquito NPYLR7 agonism; 0.15% of 270,000 active; HEK293T NPYLR7/Galpha15, GCaMP6s calcium fluorescence; activation, % at 10 µM; in the data active = activation above about 40%;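 note: 0% = vehicle and 100% = reference agonist at the receptor; some compounds past the cut are filed as inactive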
# NPYLR7 ag max-min: further read-out of NPYLR7 ag, marked with its call; activation, %; measured here: Max-Min RFU normalised activation; some inactives read as strong as hits;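 span of the calcium signal over five minutes; 0% = vehicle and 100% = native peptide agonist; compound fluorescence can raise it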
# * = called active by the depositor; & = joins results of further samples. This is a subset; count on the stated rates, not on these rows.
SMILES,NPYLR7 ag,NPYLR7 ag max-min
CCCCN1CC(c2nc3ccccc3n2Cc2ccc(F)cc2)CC1=O (configuration not stated),-0.8,-3.3
COc1ccccc1C(NC(=O)C1CCN(CCc2ccccc2)CC1)c1ccccn1 (configuration not stated),4.4,4.8
CN(C)S(=O)(=O)N1CCN(C(=O)N2CCOCC2)CC1,2.8,6.3
Cn1cnc(S(=O)(=O)N2CCCc3cccc(Cl)c32)c1Cl,0.2,5.1
CC(C)(C)c1ccc(-n2c(=O)[nH]c3c(C(N)=O)ncnc32)cc1,-1.1,-3.3
CC(C)(C)c1ccc(C(=O)c2ccn(CC(=O)O)c2)cc1,5.6,4.2
O=S(=O)(Nc1cccc(-c2nnnn2C2CC2)c1)c1cc(F)cc(F)c1,-3.1,-4.4
Cc1nn(C)c(Oc2cccnc2)c1CNC1CCCC1(C)CO (configuration not stated),3.4,-0.1
COc1ccc(N2CCN(c3ncc4c(n3)CCCC4=O)CC2)cc1,2.9,0.5
Cc1cc(C(=O)N2CCOCC2)nn1CC(=O)Nc1nc2ccccc2[nH]1,1.5,1.4
Cc1cccc(NC(=O)C2CCN(S(=O)(=O)c3cccs3)CC2)c1,-23.0,-24.8
Cc1cc(C)n(-c2ccc(NC(=O)C3CCN(C(=O)Cc4ccsc4)CC3)cc2)n1,-11.3,-16.8
Oc1c2cccnc2cn1CCSc1ccccn1,24.4,9.2
CCC(C(=O)Nc1ccccc1)N(C)Cc1ccsc1 (configuration not stated),3.3,1.4
CCC(NC(=O)CN1c2cccc3cccc(c23)S1(=O)=O)c1ccc(C)cc1 (configuration not stated),7.7,1.4
O=C(c1ccc[nH]1)N1CCc2c(nc(-c3ccccn3)[nH]c2=O)C1,8.4,5.3
COc1ccc2[nH]c3c(c2c1)CCN(C(=O)Cc1ccc(OCc2ccccc2)cc1)C3c1ccc(COC(C)=O)o1 (configuration not stated),19.1,2.5
Cc1cccc(S(=O)(=O)NC(=O)C2(C)CCN2C(=O)C2(c3ccc(Cl)cc3)CC2)c1 (configuration not stated),3.6,0.8
Clc1ccc(-c2csc3ncnc(Sc4nnc(C5CC5)o4)c23)cc1,-2.7,9.0
Cc1oc(-c2ccccc2Cl)cc1C(=O)NCCc1cnc[nH]1,0.9,0.1
CCOC(=O)C1CCN(C(=O)c2c(C)c(C)c(C)n2Cc2ccc(F)cc2F)CC1,-4.1,7.5
CCn1c(C2CC(=O)N(C)C2)n[nH]c1=O (configuration not stated),18.1,13.5
CCc1ccc(CNC(=O)CCc2n[nH]c(=O)[nH]c2=O)s1,6.7,5.3
COc1ccccc1/C=C\C1=NC(=C/c2cccc3ccccc23)/C(=O)O1,-2.9,-7.7
CCOC(=O)C1=C(C)N=c2s/c(=C\c3cccs3)c(=O)n2C1c1ccc(OC)c(OC)c1 (configuration not stated),-2.7,-2.8
Clc1cc2c(c(CSc3ncnc4ccccc34)c1)OCOC2,-1.6,-1.2
O=S(=O)(NCc1nnnn1-c1ccccc1)c1cccc(C(F)(F)F)c1,3.6,1.1
C=CCOCC(O)CN(Cc1ccc(C)s1)CC1CCCO1 (configuration not stated),21.1,20.7
COc1ccccc1C(=O)N1CCN(c2nc(-c3ccc(Cl)cc3)nc(C)c2Cc2ccccc2)CC1,-5.4,-1.6
O=c1[nH]c2c(s1)C(c1ccc(-c3ccc([N+](=O)[O-])cc3)o1)C1C3CCC(C3)C1S2 (configuration not stated),-2.4,-4.1
Cc1[nH]n(Cc2ccc(Cl)cc2)c(=O)c1C=O,5.3,1.9
CN1C(=O)C(=NN=c2sc3ccccc3n2C)c2ccccc21,5.4,4.2
CN(CC(=O)Nc1cccc(F)c1)Cc1cccc(Cl)c1,-5.8,-8.6
CCOC(=O)N1CCN(C2CCCN(C(=O)/C=C/c3ccc(OC)cc3)C2)CC1 (configuration not stated),-2.6&6.2,-2.7&4.6
CN(CC1(C)CCN(Cc2ccccc2)CC1)C(=O)c1ccn[nH]1,12.3&-6.0,6.3&-7.0
COCCOCC(=O)NCc1ccc(-c2ncc(-c3ccc(OC)cc3)[nH]2)cc1,-2.7,5.8
Cc1ccccc1-c1ncc(CN2CCc3c([nH]c4ccccc34)C2c2cccc(O)c2)cn1 (configuration not stated),14.5,6.2
CCOC(=O)c1nn(Cc2ccncc2)c2c1CN(C(=O)c1cccs1)CC2,19.6,3.8
O=C(c1cccc(OC(F)F)c1)N1CCOC(Cc2ccccc2)C1 (configuration not stated),19.1,25.6
Clc1ccccc1-c1noc(C2CCC(c3ccccc3)CC2)n1 (configuration not stated),-3.6,-7.2
Cc1cccc2sc(NNC(=O)c3ccc(S(=O)(=O)N4CCc5ccccc5C4)cc3)nc12,-2.9,-3.9
COCCN(CCC(=O)NC1CCN(Cc2ccccc2)CC1)c1nc(Cc2cccc(OC)c2)ns1,21.5,24.8
Cn1c(=O)n(Cc2ccccc2)c(=O)c2c1nc1n2CCCN1Cc1ccco1,1.9,0.6
CCc1ccc(O)c(C(=O)N2CCN(Cc3ccccn3)CC2)c1,2.8,3.0
CCn1ncc(/C=N/NC(=O)c2cc(Cl)ccc2OC)c1C,-5.4,5.9
O=S(=O)(c1ccccc1)n1ccc2ccccc21,-0.7,-2.6
CN(C)C(=O)C(NCc1ccc(N2CCCC2=O)cc1)c1ccccc1 (configuration not stated),8.8,4.2
Cc1ccc(C)c(C(=O)N2CCN(c3ccc(-n4cccn4)nn3)CC2)c1,-4.0,-13.2
COC(=O)CN1CCC(NC2CCSC2)CC1 (configuration not stated),-3.0,-7.7
COc1ccccc1CN(C)C(=O)CCn1nnnc1CN1CCOCC1,10.7&0.8,7.3&-1.9

# (more compounds)
SMILES,NPYLR7 ag,NPYLR7 ag max-min
COc1cccc(C(=O)Nc2c3c(nn2C(C)(C)C)CS(=O)C3)c1 (configuration not stated),-0.5,-0.9
N#Cc1c(NC(=O)CCc2cccc(Cl)c2)nc2n1CCS2,6.3,1.7
CCOC(=O)C1CCCN(C(=O)c2c(CC)nn(-c3ccccc3Cl)c2CC)C1 (configuration not stated),-9.7,-2.7
CN(C)C(=O)C1CSCN1C(=O)/C=C/c1ccc2c(c1)OCCO2 (configuration not stated),12.8,13.0
N#CC1(C#N)OC(C#N)(C#N)C2c3ccccc3C=CC21 (configuration not stated),-1.9,-1.6
O=C(CSc1nnnn1C1CCCC1)c1cc(Cl)sc1Cl,-3.1,-4.2
COC(=O)c1c(NC(=O)CSc2ncnc3sc(C)c(C)c23)sc2c1CCCCC2,-3.9,-13.8
CCc1cnc(C)nc1N1CCCC(C(=O)c2ccc(C(F)(F)F)cc2)C1 (configuration not stated),-1.2,-2.1
COc1ccc2oc(=O)c(S(=O)(=O)c3ccc(Br)cc3)cc2c1,10.5,8.9
COc1cccc2cc(C(N)=O)c(=Nc3cccc4ccccc34)oc12,-4.1,-5.3
c1ccc2c(CCNC3CCSC3)c[nH]c2c1 (configuration not stated),-4.4,-5.6
Cc1cc(C)c2c(c1C(=O)NC(c1ccc(S(C)(=O)=O)cc1)c1ccc3c(c1)CCO3)CC(C)(C)C2=O (configuration not stated),10.3,4.0
Cc1ccc(C(=O)Nc2ccnn2-c2ccc(Cl)cc2)c(=O)[nH]1,12.4,8.7
Cc1nn(S(=O)(=O)N2CCOCC2)c(C)c1Br,17.9,12.9
O=C(Cn1cncn1)Nc1ccc(Cl)cc1OCC(F)(F)F,4.5,4.8
Cc1ccc(C)c(NC(=O)CN(C)C(=O)Cn2cccn2)c1,0.1,-1.5
COc1ccc2nc(-c3cccc(NS(=O)(=O)c4cccc(Cl)c4)c3)cn2n1,-7.8,-11.9
Cc1cccc(Cn2c(=O)c(C(=O)N3CCCC3)nn(-c3ccc(Cl)cc3)c2=O)c1,10.3,6.5
Cc1nc(N(C)C)nc(N(C)Cc2ccoc2)c1C,8.8,6.6
CCCN(CC(=O)Nc1cc(C(C)(C)C)nn1-c1ccc(OC)cc1)C(=O)/C=C/c1ccc([N+](=O)[O-])cc1,23.2,25.6
Cc1ccc(F)cc1NC(=O)N1CC(=O)N2CCc3ccc(Cl)cc3C2C1 (configuration not stated),-3.5,7.2
Cc1sc2ncc(C(=O)N3CCCC4(CNC(=O)O4)C3)c(=O)n2c1C (configuration not stated),5.1,4.8
O=C(c1ccc(Cl)cc1Cl)N1CCCC(OCc2cccc(Cl)c2)C1 (configuration not stated),-4.4,1.0
CCc1cc(CN(C)Cc2ccc3c(C)cc(=O)oc3c2)on1,-7.5,-10.7
CC1CCN(Cc2nc(NCCN(C)C)c3c4c(sc3n2)CCC4)CC1,9.3,13.8
CC(=NNC(=O)NC1CCCCC1)c1ccc(Cl)s1,-0.4,-6.9
COCCN1CCN(Cc2nnnn2-c2c(C)cccc2C)CC1C (configuration not stated),3.0,1.9
CSCCN(C)C(=O)NCc1nccn1C,4.6,2.5
CC(=O)Nc1c(C)nc2ccc(Cl)cn2c1=O,3.6,-0.3
Cc1nc(N2CCN(Cc3cc(=O)n4ccsc4n3)CC2)c2c(C)c(C)sc2n1,3.0,0.5

# Complete entries, quoted from the list. Order of values: NPYLR7 ag	NPYLR7 ag max-min
# Results for CSCCN(C)C(=O)NCc1nccn1C → 4.6	2.5
# Results for COCCN1CCN(Cc2nnnn2-c2c(C)cccc2C)CC1C (configuration not stated) → 3.0	1.9

# Further records follow:
SMILES,NPYLR7 ag,NPYLR7 ag max-min
O=C(CN1C(=O)CCC1=O)NCC1CCN(S(=O)(=O)C2CC2)CC1,-9.7,-9.6
Cc1cc2c(cc1C)NC(CC(=O)NCC(C)C)C(=O)N2 (configuration not stated),-11.4,-15.3
Cc1cc(C)n2nc(SCC#N)nc2n1,0.8,15.3
Cc1c(S(=O)(=O)N2CCC(Cc3ccccc3)CC2)c(=O)n(C)c(=O)n1C,2.2,1.5
Cc1noc(C2CCCN(C(=O)Nc3ccc4c(c3)OC(C)(C)O4)C2)n1 (configuration not stated),5.4,1.2
Oc1ccc(C2=CCN(c3ncnc4ccccc34)CC2)cc1,5.7,2.9
Cn1cc(CN2CCC(C(=O)NC(c3ccc(Cl)cc3)c3ccccn3)CC2)c2ccccc21 (configuration not stated),7.2,-5.8
CSc1nc2ccc3nc(Nc4nc5cc6c(cc5s4)OCO6)sc3c2s1,2.2,0.5
CC(C)(C)c1nc(CN2CCN(S(=O)(=O)c3ccc4c(c3)CCCC4)CC2)no1,8.1,2.2
O=c1c2ccccc2c(-c2ccc(F)cc2)nn1CC(O)COCc1cccs1 (configuration not stated),5.7,1.8
CCOC(=O)N1CCN(C(=O)CCc2cc3c(n2-c2ccc4ncsc4c2)-c2ccc(OC)cc2CC3)CC1,1.8,-3.9
Cc1ccccc1C1c2ccsc2CCN1C(=O)CN(Cc1ccco1)C(=O)c1ccccc1F (configuration not stated),6.1,15.7
CC(C)C[C@H](NC(=O)CNC(=O)c1cc(Cl)ccc1Cl)B(O)O,-6.4,-10.0
CSc1cccc(NC(=O)Nc2ccc(Nc3cc(-n4cccn4)ncn3)cc2)c1,-7.3,-12.6
O=C(CCl)N1CCN(Cc2ccccc2)CC1,-1.4,7.6
CC(C)OC(=O)CC12CN(C)CC(CC(=O)OC(C)C)(CN(C)C1)C2=O,4.7,0.7
Cc1nc(C)n(CCC(=O)Nc2ccccn2)n1,1.0,3.2
CN(C)CC1(O)CCN(C(=O)c2csc(-c3cccnc3)n2)C1 (configuration not stated),3.8,3.4
C=CCOc1ccc(/C=C2\SC(N)=NC2=O)cc1OC,-5.4,-9.5
CCc1c(O)nc(SCCN(CC)CC)[nH]c1=O,3.5,-1.7

# 13 structures out of the list, arranged by count of non-hydrogen atoms, falling:
SMILES,NPYLR7 ag,NPYLR7 ag max-min
CCOC(=O)N1CCN(C(=O)CCc2cc3c(n2-c2ccc4ncsc4c2)-c2ccc(OC)cc2CC3)CC1,1.8,-3.9
Cc1ccccc1C1c2ccsc2CCN1C(=O)CN(Cc1ccco1)C(=O)c1ccccc1F (configuration not stated),6.1,15.7
Cn1cc(CN2CCC(C(=O)NC(c3ccc(Cl)cc3)c3ccccn3)CC2)c2ccccc21 (configuration not stated),7.2,-5.8
CSc1cccc(NC(=O)Nc2ccc(Nc3cc(-n4cccn4)ncn3)cc2)c1,-7.3,-12.6
O=c1c2ccccc2c(-c2ccc(F)cc2)nn1CC(O)COCc1cccs1 (configuration not stated),5.7,1.8
Cc1c(S(=O)(=O)N2CCC(Cc3ccccc3)CC2)c(=O)n(C)c(=O)n1C,2.2,1.5
CC(C)OC(=O)CC12CN(C)CC(CC(=O)OC(C)C)(CN(C)C1)C2=O,4.7,0.7
Oc1ccc(C2=CCN(c3ncnc4ccccc34)CC2)cc1,5.7,2.9
Cc1cc2c(cc1C)NC(CC(=O)NCC(C)C)C(=O)N2 (configuration not stated),-11.4,-15.3
C=CCOc1ccc(/C=C2\SC(N)=NC2=O)cc1OC,-5.4,-9.5
CCc1c(O)nc(SCCN(CC)CC)[nH]c1=O,3.5,-1.7
O=C(CCl)N1CCN(Cc2ccccc2)CC1,-1.4,7.6
Cc1cc(C)n2nc(SCC#N)nc2n1,0.8,15.3

# (more compounds)
SMILES,NPYLR7 ag,NPYLR7 ag max-min
O=C(Nc1ccccc1I)C1CC(=O)N(CCc2ccccc2)C1 (configuration not stated),5.8,4.6
Clc1cccc(-c2nnc3n2N=C2CCCCC2S3)c1 (configuration not stated),1.0,0.7
COc1ccc(C(=O)OC(c2ccccc2)c2nccc3ccccc23)cc1OC (configuration not stated),-6.1,-8.2
O=S(=O)(NC1CC1)c1ccc(NCc2cccc(C(F)(F)F)c2)nc1,5.9,3.3
Cn1c(C(=O)N2CCCCC2)cc2c(=O)n3ccccc3nc21,-2.5,-6.0
CCOC(=O)C1(CCCCCCOc2ccc(Cl)cc2)CO1 (configuration not stated),-5.5,-9.9
COc1ccccc1N1CCN(C(=O)c2cc(-c3ccco3)nn2-c2ccc(Cl)cc2)CC1,-11.3,-5.5
COc1cc(C(=O)Nc2ccc(Cl)c(-c3nc4cc(Cl)ccc4o3)c2)cc(OC)c1OC,20.2,25.1
COc1ccc(CCC(=O)Nc2ccc(-n3cc[nH]c3=O)cc2)cc1OC,-5.0,-3.6
O=C1NC(=S)NC(=O)C1=Cc1cccn1-c1cccc([N+](=O)[O-])c1,1.4,1.0
C=CCn1c(SCC(=O)c2cccs2)nc2sc3c(c2c1=O)CCC3,-0.2,8.6
